Screening results from PubChem BioAssay.
D2 agonist: activates the human D2 dopamine receptor. P14416. DiscoveRx PathHunter D2 beta-arrestin, luminescence, 90 min; 100% = 57 uM dopamine signal. activation, % (no concentration beside the values). 0.084% of 360,000 active. AID 624465; in the data active = activation above about 40%; inconclusive = about 15% to 40%; inactive = below about 15%; also: compound concentration not given in the record; the text of the record calls up to 30% inactive
Target sequence (P14416 whole entry, looked up): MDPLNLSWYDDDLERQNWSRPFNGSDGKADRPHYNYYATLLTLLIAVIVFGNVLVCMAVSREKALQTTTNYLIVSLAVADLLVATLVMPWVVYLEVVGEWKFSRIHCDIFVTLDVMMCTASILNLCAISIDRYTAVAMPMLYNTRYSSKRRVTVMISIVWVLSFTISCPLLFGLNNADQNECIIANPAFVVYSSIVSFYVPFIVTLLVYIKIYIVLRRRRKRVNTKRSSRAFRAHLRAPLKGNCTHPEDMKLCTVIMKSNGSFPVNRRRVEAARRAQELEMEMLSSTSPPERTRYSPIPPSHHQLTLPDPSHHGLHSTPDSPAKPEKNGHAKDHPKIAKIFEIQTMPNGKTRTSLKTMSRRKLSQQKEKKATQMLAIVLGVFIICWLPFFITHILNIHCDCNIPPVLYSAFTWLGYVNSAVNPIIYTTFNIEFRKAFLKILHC
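Agonist mode: compounds alone added to overnight-plated D2 PathHunter cells for 90 min at 37 C, with 57 uM final dopamine (EC100) defining full response. Beta-arrestin recruitment detected by chemiluminescent reagent, read after 1 h at ambient temperature.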
D2 potentiator: positive allosteric modulators of human D2 dopamine receptor | P14416 | DiscoveRx D2 beta-arrestin cells, luminescence, 90 min; 100% = 57 uM dopamine signal | potentiation, % (no concentration beside the values) | 0.23% of 360,000 active; active = potentiation of 50% or more; inconclusive = 30% to 50%; inactive = 30% or less;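 also: compound concentration not given in the record; tested on top of an EC20 dose of dopamine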
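PathHunter D2 cells, attached overnight at 37 deg C, received compound in DMSO plus dopamine at EC20 (50 nM final) for 90 min at 37 deg C. Beta-arrestin recruitment was read as luminescence after 1 h with detection reagent at ambient temperature.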
TRPML1 inh: inhibitors of human TRPML1 channel; Q9GZU1; TRPML1-inducible cells, Ca2+ dye fluorescence, FDSS; hits give low values; inhibition of EC80 agonist-evoked calcium signal; activity change, negative = inhibition, % (concentration not given with the values); 0.02% of 390,000 active; AID 624415; in the data active means activity change below about -50%; inconclusive means about -30% to -50%; inactive means above about -30%;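 also: stimulus is agonist 54-4 at its EC80 concentration; % is scaled to controls: 0 for no effect and ±100 for the full control effect; compound concentration not given in the record; the text of the record puts the active cut at -80%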
Target sequence (Q9GZU1 whole entry, looked up): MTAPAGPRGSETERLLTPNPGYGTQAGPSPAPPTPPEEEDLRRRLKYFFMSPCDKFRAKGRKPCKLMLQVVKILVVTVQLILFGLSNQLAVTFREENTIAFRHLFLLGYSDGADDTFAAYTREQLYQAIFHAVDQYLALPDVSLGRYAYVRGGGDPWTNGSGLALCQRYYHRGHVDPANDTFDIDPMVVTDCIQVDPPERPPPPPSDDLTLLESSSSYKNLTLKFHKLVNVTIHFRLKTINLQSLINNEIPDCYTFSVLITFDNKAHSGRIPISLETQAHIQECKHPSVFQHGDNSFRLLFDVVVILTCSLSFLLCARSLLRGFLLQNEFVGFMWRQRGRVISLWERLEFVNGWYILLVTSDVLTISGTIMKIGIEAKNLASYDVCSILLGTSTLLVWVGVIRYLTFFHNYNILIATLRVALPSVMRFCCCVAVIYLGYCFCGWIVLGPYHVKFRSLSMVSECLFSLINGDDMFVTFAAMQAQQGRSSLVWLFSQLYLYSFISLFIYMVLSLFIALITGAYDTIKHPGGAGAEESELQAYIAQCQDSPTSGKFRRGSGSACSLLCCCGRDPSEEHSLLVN
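TRPML1-DL cells, Tet-induced overnight (~16 h, 37 °C) at 1,500 cells/well, were loaded with Ca8 no-wash dye plus quencher for 45-90 min at room temperature. Compounds were pinned during FDSS kinetic reading; agonist 54-4 at EC80 (4 uM final) then added.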
PINK1 expr mod: PINK1 expression modulation; PINK1 immunofluorescence, high-content cytometry, 24 h; Potency, µM (top dose mostly 76.6 µM), for the others: at the highest dose activation (PINK1 increase), usual class: activators; 0.2% of 410,000 active; active = well fitted activation curve with a large enough effect; inconclusive = small, poorly fitted or top-dose-only effect; inactive = flat fitted curve, though single readings scatter; cell line not stated here;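 also: potency is read from the fitted curve at half-maximal effect; % of control where 0% means no effect; nearly all actives have a fitted effect of over 65% in size; a mitochondrial uncoupler was the plate control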
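A stable cell line was treated with compounds at 5 concentrations for 24 hours, with CCCP as control. PINK1 levels and mitochondrial localization were measured by immunofluorescence with mitochondrial, cell and nuclear markers after fixation, read by laser-scanning cytometry.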
Six1-Eya2 blk: blocks human Six1 binding to Eya2. activity change, % (no concentration beside the values). AlphaScreen GST-Six1/His-Eya2 binding, biochemical; hits give low values; control for the full effect not named in the record. Q15475+O00167. AID 651725. 0.56% of 360,000 active; in the data active = activity change below about -65%; inconclusive = about -30% to -65%; inactive = above about -30%; also: % is scaled to controls: 0 for no effect and ±100 for the full control effect; compound concentration not given in the record
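Compounds are tested against tagged Six1 and Eya2 proteins bridged by glutathione donor and nickel acceptor beads; after a one-hour incubation at 37 °C without light, AlphaScreen emission is recorded.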
TRPML1 ag: activates the human TRPML1 channel; TRPML1-expressing cells, Ca2+ dye fluorescence, FDSS; host cell line not named in the record; reference of the full effect not given here; 0.12% of 410,000 active; activation, % (concentration not given with the values); in the data active = activation above about 50%; inconclusive = about 30% to 50%; inactive = below about 30%; also: 0% is about no effect; the text of the record puts the active cut at 80%
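Tetracycline-induced TRPML1-DL cells are seeded and incubated overnight before loading with a no-wash Ca2+ dye and quencher. Agonist activity is taken from the 110 s fluorescence read following compound pin-transfer on an FDSS, before EC80 54-4 challenge.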
* = called active by the depositor; ? = inconclusive; . = not tested or not shown; & = joins results of further samples; [ ] = dose if it differs, or a comment.

SMILES	D2 agonist	D2 potentiator	TRPML1 inh	PINK1 expr mod	Six1-Eya2 blk	TRPML1 ag
CC(NC(=O)Cn1c(=O)oc2cc(S(=O)(=O)NCc3ccccc3)ccc21)c1ccccc1 (stereo unspecified)	.	.	25	4.5%	.	-0.1
C[C@H]1CN([C@@H](C)CO)C(=O)CCCn2nncc2CO[C@H]1CN(C)C(=O)c1ccc(N2CCN(C)CC2)cc1	-0.7	-1	17	-0.7%	-1	0.5
Cn1c(C(=O)N2CCCCCC2)cc2c(=O)n(C)c3ccccc3c21	-1.6	5	2	4.3%	-8	0.3
CCc1cc(C(=O)OC)c(NC(=O)C2CC(=O)NN2Cc2ccccc2)s1 (stereo unspecified)	0.9	-6	-2	6.5%[38.3 µM]	-1	-0.1
CCOC(=O)c1ccc(N2CCN(c3cc(Cl)ccc3C)CC2)c(NC(=O)Nc2ccc(OCC)cc2)c1	.	.	-17	2.2%	.	-0.7
Cc1ccccc1NS(=O)(=O)c1cccc(-c2nnc(-c3ccccc3)o2)c1	0.6	-7	22	.	-3	2.3
CCn1cc(C(=O)N2CCCC(CO)(Cc3ccccc3C)C2)cn1 (stereo unspecified)	-5.9	-8	4	0.3%	2	0.1
CCN1CCN(CC(=O)n2c3c(c4ccccc42)CC(C)CC3)CC1 (stereo unspecified)	0.4	-12	-1	-1.8%	-19	0.5
COc1ccc(C#Cc2c(-c3ccsc3)oc3ccc(N4CCOCC4)cc23)cc1	2.5	-1	17	2.8%	8	0.1
Cc1ccc(Cl)cc1NC(=O)C1CC(=O)N(C(C)C)C1 (stereo unspecified)	0.9	-6	-6	1.8%	-4	0.1
COc1ccc(CCN2C(=O)C3CC=C(C)CC3C2=O)cc1OC (stereo unspecified)	-5.6	1	-1	-1.3%	1	-0.2
Cc1ccc(C)c(Cn2c(=O)n(CCCC(=O)NCc3ccco3)c(=O)c3ccccc32)c1	2.2	1	6	11%	-4	-0.5

An excerpt of these results, comma-delimited:
molecule,D2 agonist,D2 potentiator,TRPML1 inh,PINK1 expr mod,Six1-Eya2 blk,TRPML1 ag
Cn1c(C(=O)N2CCCCCC2)cc2c(=O)n(C)c3ccccc3c21,-1.6,5,2,4.3%,-8,0.3
COc1ccc(C#Cc2c(-c3ccsc3)oc3ccc(N4CCOCC4)cc23)cc1,2.5,-1,17,2.8%,8,0.1

Following part.
SMILES	D2 agonist	D2 potentiator	TRPML1 inh	PINK1 expr mod	Six1-Eya2 blk	TRPML1 ag
O=C(Nc1cccc(F)c1)C1CCN(c2nnnn2-c2ccccc2)CC1	-1.1	-14	2	-2.2%	3	0.8
CCOc1cc(NC(=O)C2CC2)c(OCC)cc1NC(=O)c1cccc(F)c1	-4.1	-7	-5	10%	-5	-0.3
Cn1c(=O)cc(OCCCC(=O)NCc2ccc3c(c2)OCO3)c2ccccc21	-4.1	0	-2	0.5%	0	0.9
OCCN1CCN(Cc2cccc(Oc3ccc(Cl)cc3)c2)CC1	-0.1	-13	-5	-0.8%[38.3 µM]	-1	1.0
CCn1c(SCC(=O)Nc2cccc(C(C)=O)c2)nnc1C(C)C	1.6	11	20	-2.5%	-7	-0.7
COc1ccnc(Oc2cccc(C(F)(F)F)c2)c1C(=O)N/C=N/OCc1ccccc1F	6.3	0	20	-0.1%	-2	1.0
O=C(O)CN(c1ccccn1)S(=O)(=O)c1ccccc1	-2.4	-19	4	-0.6%	7	-0.3
O=C(/C=C/c1ccc(OC(F)F)cc1)OCC(=O)N1CCC(c2ccccc2)=N1	-0.6	3	-4	4.0%	2	-1.2
c1ccc(Cc2nc3ccccc3n2Cc2ccccc2)cc1	-3.6	-13	68	0.3%	1	1.6
COc1cc(-c2cc(NC=O)c3ncc(-c4ccc(F)cc4)n3c2)cc(OC)c1OC	-4.7	-11	30	0.2%	-5	0.9
NC(=O)C(c1ccc(Cl)cc1)c1ccc(Sc2ccccc2)nn1 (stereo unspecified)	-3.6	-2	-9	1.2%	3	0.6
O=[N+]([O-])c1ccc(NC2CCCC2)cc1	-1.9	-22	19	4.1%	-5	1.4
CC(C)N=C(NC#N)SCc1ccccc1F	-2.1	-6	3	11%[38.3 µM]	4	0.4
CCN(CC(=O)Nc1c(F)cccc1F)C(=O)c1ccc(C)c(S(=O)(=O)N2CCCCC2)c1	-1.7	-4	-9	3.2%	-3	-0.2
Cc1ccccc1C(=O)c1cccn1CC(=O)N1CCCCCC1	-0.7	-14	12	-0.7%	-4	-0.1
CCN(CC(=O)N(CC(C)C)c1c(N)n(CC(C)C)c(=O)[nH]c1=O)Cc1nc2ccccc2c(=O)[nH]1	-2.7	-8	85	0.9%	-5	-0.6
COc1cc2cc(CN(CCCO)S(=O)(=O)c3ccccc3)c(=O)[nH]c2cc1OC	0.9	1	12	.	-5	0.1
CCCCN(CCCC)CCC(O)c1cc2c(Cl)cc(Cl)cc2c2cc(C(F)(F)F)ccc12 (stereo unspecified)	2.7	5	9	?	6	-0.9
O=C(NCCc1nnc2ccccn12)c1cccs1	4.0	-8	22	0.1%	9	-0.1
COc1ccc(Nc2nc(N)nc(C(F)(F)F)n2)c(OC)c1	0.1	3	-7	-0.3%	-3	0.5
Cn1cc(C2N3CC4(C)CN2CC(C)(C3)C4=O)c2ccccc21 (stereo unspecified)	-6.2	0	6	2.4%	-1	-0.6
Cc1ccc(OCC(=O)NC(=S)Nc2cccc(NC(=O)c3ccccc3)c2)cc1	-3.9	1	-17	?	6	-0.3
COc1ccc(C(c2nnnn2Cc2ccc(F)cc2)N2CCN(c3ccccc3)CC2)cc1 (stereo unspecified)	-1.4	-20	22	2.8%	-24	0.1
COC(=O)Nc1ccc(S(=O)(=O)N(C)CC(F)(F)C(F)F)cc1	-2.3	-4	3	-0.4%	-2	-1.0

Random excerpt: 7 records from the list, in no set order.
SMILES	D2 agonist	D2 potentiator	TRPML1 inh	PINK1 expr mod	Six1-Eya2 blk	TRPML1 ag
COc1cc2cc(CN(CCCO)S(=O)(=O)c3ccccc3)c(=O)[nH]c2cc1OC	0.9	1	12	.	-5	0.1
O=C(NCCc1nnc2ccccn12)c1cccs1	4.0	-8	22	0.1%	9	-0.1
CCN(CC(=O)N(CC(C)C)c1c(N)n(CC(C)C)c(=O)[nH]c1=O)Cc1nc2ccccc2c(=O)[nH]1	-2.7	-8	85	0.9%	-5	-0.6
Cn1cc(C2N3CC4(C)CN2CC(C)(C3)C4=O)c2ccccc21 (stereo unspecified)	-6.2	0	6	2.4%	-1	-0.6
CCN(CC(=O)Nc1c(F)cccc1F)C(=O)c1ccc(C)c(S(=O)(=O)N2CCCCC2)c1	-1.7	-4	-9	3.2%	-3	-0.2
CCCCN(CCCC)CCC(O)c1cc2c(Cl)cc(Cl)cc2c2cc(C(F)(F)F)ccc12 (stereo unspecified)	2.7	5	9	?	6	-0.9
COC(=O)Nc1ccc(S(=O)(=O)N(C)CC(F)(F)C(F)F)cc1	-2.3	-4	3	-0.4%	-2	-1.0

Part of the list above, reformatted:
Below each compound – D2 agonist, D2 potentiator, TRPML1 inh, PINK1 expr mod, Six1-Eya2 blk, TRPML1 ag
> O=[N+]([O-])c1ccc(NC2CCCC2)cc1
 : -1.9, -22, 19, 4.1%, -5, 1.4
> CC(C)N=C(NC#N)SCc1ccccc1F
 : -2.1, -6, 3, 11%[38.3 µM], 4, 0.4

Next part
SMILES	D2 agonist	D2 potentiator	TRPML1 inh	PINK1 expr mod	Six1-Eya2 blk	TRPML1 ag
O=C(c1cccc(S(=O)(=O)N2CCOCC2)c1)N1CCN(c2ncccn2)CC1	-2.2	-5	16	1.2%	0	-0.4
COC(=O)C1=C(C)NC(C)=C([N+](=O)[O-])C1c1ccccc1C(F)(F)F (stereo unspecified)	-6.9&5.7	-27&-6	19&-1	2.6%&0.6%	-4&-6	0.5&-0.9
CC(=O)N(c1ccc2oc(=O)sc2c1)S(=O)(=O)c1cccc2cccnc12	-1.8	-4	3	0.1%	-24	-0.3
COc1ccc2cc(C=O)n(C)c2c1	-3.9	1	16	0.3%	7	-0.3
CC1=Nc2cc(C(=O)NC3CCC(C)CC3)ccc2Sc2c(C)ccc(C)c21 (stereo unspecified)	.	.	-12	2.3%	.	2.4
O=C(NCC1CCCO1)c1ccc(NC(=O)c2cccc(Cl)c2)cc1 (stereo unspecified)	-3.8	-19	46	8.4%	2	-0.1
CCC1CCc2c(sc(NC(=O)C3c4ccccc4Oc4ccccc43)c2C#N)C1 (stereo unspecified)	.	.	-9	3.3%	.	-1.0
O=C(COC(=O)c1n[nH]c2ccccc12)NCCc1ccccc1	6.0	-6	9	3.1%	-6	-0.9
Cc1ccc(OCCCN2CCC(C(O)(c3ccccc3)c3ccccc3)CC2)cc1	.	.	.	-1.3%	-6	2.8
CCc1nnc(NC(=O)COC(=O)CN2C(=O)c3ccccc3C2=O)s1	-0.3	-7	4	-2.3%	27	0.0
CCOC(=O)N1CCN(C(=O)CSCc2ccc(C)cc2)CC1	0.5	11	-20	-2.2%	-1	0.2
CC(C)(C)c1ccc(C(=O)N2CCC2(C)C(=O)NCCC#N)cc1 (stereo unspecified)	3.3	1	-1	-0.1%	-3	1.4
C=CCn1c(SCCN2C(=O)c3ccccc3C2=O)nc2scc(-c3ccc(F)cc3)c2c1=O	-1.1	-6	-9	3.6%	1	-0.5
CC(C)N(C(=O)CSc1nc(COc2ccccc2)nc2ccccc12)C(C)C	-3.4	-21	69	14%	-13	2.8
Cc1cc(Cl)ccc1N1C(=O)CC(NNC(=O)c2cccnc2)C1=O (stereo unspecified)	-0.2	1	8	-0.1%	-10	0.1
CC1=CC2=NC(=O)CC(C)(C(=O)N(CC(=O)NC3CCCC3)Cc3ccc(Cl)cc3)N2C=C1 (stereo unspecified)	-0.9	-2	33	1.3%	1	-0.3
O=C(Cn1cnc2ccccc21)N/N=C/c1ccco1	-3.2	-6	-15	0.0%	25	2.0
COc1cccc(CNC(=O)CCCn2nc(C)n3c(cc4sccc43)c2=O)c1	-2.9	0	12&23	-0.3%&0.0%	-3	1.2&1.5
C#CCN(C[C@H]1[C@H](OC(=O)NCC2CCCCC2)[C@H](OC(=O)NCC2CCCCC2)C[C@@H](C(=O)OC)[C@H]1C(=O)OC)S(=O)(=O)c1ccc(C)cc1	0.4	0	-29	3.0%	19	0.5
CC(C)(C)Sc1ccccc1S(=O)(=O)C(C)(C)C	-2.7	-3	-21	4.2%	3	0.9
CCOC(=O)c1ccccc1N=N/C(C(C)=O)=C(/C)O	-2.3	-18	16	0.2%	-7	3.4
Cc1cc(C)n2nc(SCC(=O)N(C)C3CCCCC3)nc2n1	1.1	1	3	-2.9%	0	0.1
